HIV Env fusion: blocks HIV Env-driven cell-cell fusion | HeLa-JRFL Env/CEM21 cell fusion, luciferase | inhibition, % at 12.3 µM | hit rate 1.1% among 360,000;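 active = mean replicate inhibition score of at least 50 and every replicate individually at or above 50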;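 note: 0% = plate neutral controls and 100% = maraviroc near 300 nM; one replicate is shown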
UUG fidelity: yeast start codon fidelity modulation; S. cerevisiae UUG-firefly luciferase reporter, luminescence/redox ratio; activity score, % at 18.7 µM; hit rate 0.13% among 350,000;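 active = replicate mean at a twofold rise or more, about +100% in these data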;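 note: firefly luciferase made from a UUG start codon reports start codon fidelity; reporter light over untreated wells divided by growth signal over untreated wells; some hits fall short of that in this replicate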
* marks the source's active call; other numbers are inactive results; [ ] = remark or other dose.

UUG fidelity | HIV Env fusion | molecule
-8.5 | -11.2[16.7 µM] | O=C(C[C@H]1CC[C@H](NC(=O)CC2CC2)[C@H](CO)O1)NCc1ccc(-c2ccccc2)cc1
-16.7 | -4.5[16.7 µM] | C[C@@H]1CN([C@@H](C)CO)C(=O)c2cc(NC(=O)Nc3cccc4ccccc34)ccc2O[C@@H](C)CCCCO[C@H]1CN(C)C(=O)Nc1ccc2c(c1)OCO2
-6.8 | 6.2[16.7 µM] | O=C(NCC[C@H]1CC[C@@H](NS(=O)(=O)c2cccc(Cl)c2)[C@H](CO)O1)c1cnccn1
24.5 | 0.3[16.7 µM] | CO[C@H]1CN(C)C(=O)c2cc(NC(=O)c3ccc(F)cc3)ccc2OC[C@H](C)N(C(=O)CN(C)C)C[C@H]1C
-4.8 | 5.8[16.7 µM] | C[C@H]1CN([C@@H](C)CO)C(=O)c2cc(-c3cccc(C#N)c3)cnc2O[C@H]1CN(C)C(=O)C1CCC1
0.5 | -11.4[16.7 µM] | CCNC(=O)C[C@@H]1C=C[C@@H](NC(=O)C2CC2)[C@H](CO)O1
8.3 | 15.1[16.7 µM] | COc1ccc(NC(=O)Nc2ccc3c(c2)C(=O)N([C@@H](C)CO)C[C@@H](C)[C@@H](CN(C)S(=O)(=O)c2cn(C)cn2)OCCCC[C@H](C)O3)cc1
-8.6 | 27.9[16.7 µM] | C[C@H](CO)N1C[C@H](C)[C@H](CN(C)S(=O)(=O)c2ccc(F)cc2)Oc2ncc(C#Cc3ccc(C(F)(F)F)cc3)cc2C1=O
-9.1 | -18.0[16.7 µM] | Cc1noc(C)c1S(=O)(=O)Nc1ccc2c(c1)C(=O)N([C@H](C)CO)C[C@@H](C)[C@H](CN(C)Cc1ccncc1)OCCCC[C@@H](C)O2
5.1 | 6.7[16.7 µM] | C[C@H]1CCCCO[C@H](CN(C)C(=O)c2ccncc2)[C@@H](C)CN([C@@H](C)CO)C(=O)c2cc(NS(=O)(=O)c3cccs3)ccc2O1
-9.6 | 3.1[16.7 µM] | O=C(Nc1cccc(F)c1)N[C@H]1CC[C@@H](CCn2cc(Cc3ccccc3)nn2)O[C@H]1CO
-8.5 | -19.0[16.7 µM] | CC(C)=CCN[C@H](CO)c1ccccc1
-9.9 | -18.1[16.7 µM] | C[C@H](CO)N1C[C@H](C)[C@H](CN(C)S(=O)(=O)c2ccc(Cl)cc2)OCCCC[C@H](C)Oc2ccc(NC(=O)CCC(F)(F)F)cc2C1=O
-10.1 | 15.3[16.7 µM] | C[C@H]1CN([C@@H](C)CO)S(=O)(=O)c2ccc(-c3ccccc3F)cc2O[C@@H]1CN(C)Cc1ccncc1
-1.6 | 2.6[16.7 µM] | CC(C)NC(=O)N(C)C[C@H]1Oc2ccc(NC(=O)Cn3cnnn3)cc2CC(=O)N([C@H](C)CO)C[C@@H]1C

Single records, as listed above.
Entry for C[C@H](CO)N1C[C@H](C)[C@H](CN(C)S(=O)(=O)c2ccc(Cl)cc2)OCCCC[C@H](C)Oc2ccc(NC(=O)CCC(F)(F)F)cc2C1=O = UUG fidelity = -9.9; HIV Env fusion = -18.1[16.7 µM]
Entry for COc1ccc(NC(=O)Nc2ccc3c(c2)C(=O)N([C@@H](C)CO)C[C@@H](C)[C@@H](CN(C)S(=O)(=O)c2cn(C)cn2)OCCCC[C@H](C)O3)cc1 = UUG fidelity = 8.3; HIV Env fusion = 15.1[16.7 µM]
Entry for CO[C@H]1CN(C)C(=O)c2cc(NC(=O)c3ccc(F)cc3)ccc2OC[C@H](C)N(C(=O)CN(C)C)C[C@H]1C = UUG fidelity = 24.5; HIV Env fusion = 0.3[16.7 µM]

(next part)
UUG fidelity | HIV Env fusion | molecule
-17.2 | -10.7[16.7 µM] | O=C(N[C@@H]1C=C[C@H](CC(=O)N2CCOCC2)O[C@H]1CO)c1ccccn1
5.8 | -12.0[16.7 µM] | COc1ccccc1-c1ccc2c(c1)O[C@H](CN(C)C)[C@@H](C)CN([C@@H](C)CO)S2(=O)=O
-5.2 | 9.9[16.7 µM] | COc1ccc([Si](C)(C)[C@H]2[C@H](CCn3cc(CCO)nn3)O[C@@]3(C(=O)N(Cc4ccc(N5C(=O)c6cccc7cccc5c67)cc4)c4ccccc43)[C@@H]2C)cc1
-1.6 | -0.7[16.7 µM] | C[C@H](CO)N1C[C@H](C)[C@H](CN(C)C(=O)Nc2ccccc2)Oc2ccc(NC(=O)Nc3ccccc3)cc2C1=O
2.6 | 34.2[16.7 µM] | CC(=O)N(C)C[C@@H]1Oc2cc(C#CCC3CCCC3)ccc2S(=O)(=O)N([C@H](C)CO)C[C@H]1C
16.6 | 6.7[16.7 µM] | Cc1ccc(S(=O)(=O)NCC[C@@H]2CC[C@@H](NS(=O)(=O)c3ccccc3Cl)[C@H](CO)O2)cc1
10.2 | 1.0[16.7 µM] | C[C@H](CO)N1C[C@H](C)[C@@H](CN(C)C(=O)c2ccccc2F)Oc2ncc(-c3ccccc3)cc2C1=O
-1.7 | -13.0[16.7 µM] | C[C@@H]1CN([C@H](C)CO)C(=O)c2cc(NS(=O)(=O)c3cccs3)ccc2O[C@@H]1CN(C)S(=O)(=O)c1ccc(F)cc1
14.8 | 16.9[16.7 µM] | C[C@H](CO)N1C[C@H](C)[C@@H](CN(C)C)OCCCC[C@H](C)Oc2ccc(NC(=O)CCCN(C)C)cc2C1=O
-5.9 | -6.9[16.7 µM] | O=C(C[C@H]1CC[C@H](NC(=O)CN2CCOCC2)[C@@H](CO)O1)NC1CCC1
3.3 | 2.8[16.7 µM] | CCNC(=O)C[C@H]1CC[C@H](NC(=O)C2CC2)[C@H](CO)O1
-2.0 | -3.7[16.7 µM] | COc1ccccc1-c1cnc2c(c1)C(=O)N([C@@H](C)CO)C[C@H](C)[C@@H](CN(C)CC1CCCC1)O2
-22.4 | 5.8[16.7 µM] | CCNC(=O)C[C@H]1CC[C@@H]2[C@@H](COc3ccc(NC(=O)c4cccs4)cc3C(=O)N2C)O1
-3.7 | -12.7[16.7 µM] | CCCc1cn(CC[C@@H]2CC[C@H](NC(=O)C3CC3)[C@@H](CO)O2)nn1
-6.3 | 2.5[16.7 µM] | C[C@H]1CN([C@@H](C)CO)S(=O)(=O)c2ccc(-c3ccc(C#N)cc3)cc2O[C@@H]1CN(C)Cc1cccc(F)c1

(more compounds)
UUG fidelity | HIV Env fusion | molecule
-7.3 | -1.9[16.7 µM] | COc1ccc(S(=O)(=O)Nc2ccc3c(c2)C(=O)N([C@@H](C)CO)C[C@@H](C)[C@@H](CN(C)S(C)(=O)=O)OCCCC[C@@H](C)O3)cc1
-10.3 | -52.7[16.7 µM] | Cc1ccc(S(=O)(=O)N(C)C[C@@H]2Oc3c(NC(=O)Nc4ccc(C(F)(F)F)cc4)cccc3C(=O)N([C@@H](C)CO)C[C@H]2C)cc1
-2.5 | -24.0[16.7 µM] | C[C@H]1CN([C@@H](C)CO)S(=O)(=O)c2ccc(C#CCN(C)C)cc2O[C@@H]1CN(C)Cc1ccccn1
-17.5 | 9.4[16.7 µM] | C[C@@H]1CN([C@@H](C)CO)C(=O)c2cc(C#Cc3cccnc3)cnc2O[C@@H]1CN(C)C
0.0 | 19.3[16.7 µM] | COc1ccc(NC(=O)Nc2ccc3c(c2)CC(=O)N([C@@H](C)CO)C[C@H](C)[C@H](CN(C)Cc2ccc(-c4ccccc4)cc2)O3)cc1
3.0 | 28.7[16.7 µM] | COc1ccc(NC(=O)Nc2ccc3c(c2)C(=O)N([C@H](C)CO)C[C@@H](C)[C@H](CN(C)Cc2ccc(Cl)c(Cl)c2)OCCCC[C@@H](C)O3)cc1
25.5 | 9.0[16.7 µM] | C[C@H](CO)N1C[C@H](C)[C@H](CN(C)S(C)(=O)=O)Oc2cc(C#CCN(C)C)ccc2S1(=O)=O
17.2 | 7.6[16.7 µM] | COc1ccc(NC(=O)N(C)C[C@@H]2OCCCC[C@H](C)Oc3ccc(NC(=O)CCCN(C)C)cc3C(=O)N([C@H](C)CO)C[C@H]2C)cc1
11.6 | 14.3[16.7 µM] | COc1ccc(NC(=O)Nc2cccc3c2O[C@@H](CN(C)Cc2ccc(C(F)(F)F)cc2)[C@H](C)CN([C@@H](C)CO)C3=O)cc1
-1.8 | -38.2[16.7 µM] | COc1ccc(NC(=O)Nc2cccc3c2O[C@@H](CN(C)C(=O)Nc2cccc4ccccc24)[C@H](C)CN([C@@H](C)CO)C3=O)cc1
-1.7 | 7.4[16.7 µM] | C[C@@H]1CN([C@H](C)CO)C(=O)Cc2cc(NS(=O)(=O)c3ccc(F)cc3)ccc2O[C@H]1CN(C)S(=O)(=O)c1cn(C)cn1
20.5 | -8.6[16.7 µM] | C[C@H]1CN([C@@H](C)CO)C(=O)c2cc(C#CCC3CCCC3)cnc2O[C@H]1CN(C)C(=O)c1cnccn1
-7.4 | -2.1[16.7 µM] | COCC(=O)N(C)C[C@@H]1Oc2cc(-c3ccc(C)cc3)ccc2S(=O)(=O)N([C@@H](C)CO)C[C@H]1C
-1.4 | -5.3[16.7 µM] | C[C@@H]1CCCCO[C@H](CN(C)Cc2ccc(C(=O)O)cc2)[C@H](C)CN([C@@H](C)CO)C(=O)c2cc(NC(=O)Nc3cccc4ccccc34)ccc2O1
-7.3 | -14.1[16.7 µM] | COc1ccc(S(=O)(=O)Nc2ccc3c(c2)C(=O)N([C@@H](C)CO)C[C@H](C)[C@H](CN(C)C(=O)Nc2c(C)noc2C)O3)cc1

Carrying on.
UUG fidelity | HIV Env fusion | molecule
17.7 | -32.0[16.7 µM] | C[C@H]1CN([C@@H](C)CO)S(=O)(=O)c2ccc(C#Cc3ccccn3)cc2O[C@@H]1CN(C)Cc1ccc(F)cc1
-10.2 | -4.8[16.7 µM] | CC(C)NC(=O)Nc1ccc2c(c1)C(=O)N([C@H](C)CO)C[C@H](C)[C@@H](CN(C)Cc1ccccc1)O2
0.7 | -10.6[16.7 µM] | COCC#Cc1ccc2c(c1)O[C@H](CN(C)CC1CCOCC1)[C@H](C)CN([C@@H](C)CO)S2(=O)=O
11.2 | 4.8[16.7 µM] | C[C@H](CO)N1C[C@H](C)[C@@H](CN(C)Cc2ccc3c(c2)OCO3)Oc2ccc(NC(=O)Cc3cn(C)c4ccccc34)cc2CC1=O
4.8 | 6.3[16.7 µM] | COc1ccc(CN(C)C[C@H]2Oc3c(NC(=O)c4nc5ccccc5s4)cccc3C(=O)N([C@@H](C)CO)C[C@@H]2C)cc1
14.4 | 34.9[16.7 µM] | Cc1ccc(S(=O)(=O)Nc2ccc3c(c2)C(=O)N([C@@H](C)CO)C[C@@H](C)[C@H](CN(C)S(=O)(=O)c2ccc(F)cc2)OCCCC[C@H](C)O3)cc1
12.7 | 8.4[16.7 µM] | C[C@H](CO)N1C[C@H](C)[C@@H](CN(C)C(=O)c2ccc(F)cc2)Oc2ncc(C#C[C@@H](C)O)cc2C1=O
-8.0 | -6.2[16.7 µM] | O=S(=O)(N[C@@H]1CC[C@H](CCn2cc(-c3cccnc3)nn2)O[C@@H]1CO)c1ccccc1
11.8 | 9.8[16.7 µM] | C[C@@H]1CN([C@@H](C)CO)C(=O)c2cc(C#CC3(O)CCCC3)cnc2O[C@@H]1CN(C)S(=O)(=O)c1cccc(F)c1
22.7 | -16.6[16.7 µM] | C[C@H](O)C#Cc1ccc2c(c1)O[C@H](CN(C)C(=O)c1ccncc1)[C@@H](C)CN([C@@H](C)CO)S2(=O)=O
-18.0 | 5.2[16.7 µM] | O=C(C[C@@H]1C[C@H]2c3cc(NC(=O)c4cccnc4)ccc3O[C@H]2[C@@H](CO)O1)NCc1ccccc1F
-2.4 | -132.7[16.7 µM] | O=S(=O)(N[C@H]1CC[C@@H](CCn2cc(-c3ccccn3)nn2)O[C@H]1CO)c1cccc(F)c1
-4.5 | 0.1[16.7 µM] | C[C@@H]1CN([C@H](C)CO)C(=O)c2cc(C#C[C@@H](C)O)cnc2O[C@@H]1CN(C)C(=O)Cc1ccccn1
3.0 | 4.1[16.7 µM] | CCCN(C)C[C@H]1OCCCC[C@@H](C)Oc2ccc(NC(=O)c3ccccc3)cc2C(=O)N([C@H](C)CO)C[C@@H]1C
5.6 | -33.6[16.7 µM] | Cc1noc(C)c1NC(=O)Nc1ccc2c(c1)C(=O)N([C@H](C)CO)C[C@H](C)[C@@H](CN(C)S(=O)(=O)c1ccccc1)OCCCC[C@H](C)O2

Remaining list, next part:
UUG fidelity | HIV Env fusion | molecule
4.9 | 25.0[16.7 µM] | C[C@@H]1CN([C@@H](C)CO)C(=O)Cc2cc(N(C)C)ccc2O[C@@H]1CN(C)C(=O)Nc1ccc2c(c1)OCO2
11.2 | -5.7[16.7 µM] | CO[C@@H]1CN(C)C(=O)c2cc(NC(=O)C3CCCC3)ccc2OC[C@H](C)N(C(=O)CC2CC2)C[C@@H]1C
-0.5 | 34.3[16.7 µM] | C[C@@H]1CN([C@H](C)CO)S(=O)(=O)c2ccc(C3=CCCCC3)cc2O[C@@H]1CN(C)Cc1ccccc1F
-5.9 | -15.1[16.7 µM] | C[C@@H]1CN([C@H](C)CO)C(=O)c2cc(C#Cc3cccnc3)cnc2O[C@@H]1CN(C)S(C)(=O)=O
-15.9 | 6.9[16.7 µM] | C[C@H](CO)N1C[C@H](C)[C@@H](CN(C)Cc2ccc3c(c2)OCO3)Oc2ccc(NC(=O)CCC(F)(F)F)cc2C1=O
4.5 | 23.6[16.7 µM] | CCCc1cn(CC[C@H]2CC[C@H](NC(=O)C3CCC3)[C@H](CO)O2)nn1
9.2 | 24.0[16.7 µM] | COc1cccc(C#Cc2ccc3c(c2)O[C@@H](CN(C)C)[C@H](C)CN([C@H](C)CO)S3(=O)=O)c1
-5.1 | 10.6[16.7 µM] | CN(C)C(=O)C[C@H]1C=C[C@H](NC(=O)NC2CCCCC2)[C@H](CO)O1
-7.9 | 4.1[16.7 µM] | CCC(=O)Nc1ccc2c(c1)C(=O)N(C)C[C@@H](OC)[C@H](C)CN(Cc1ccccn1)[C@H](C)CO2
10.7 | 30.8[16.7 µM] | C[C@@H]1CCCCO[C@H](CN(C)C(=O)CCCN(C)C)[C@H](C)CN([C@@H](C)CO)C(=O)c2cc(NC(=O)Nc3cccc4ccccc34)ccc2O1

Screening data deposited in PubChem BioAssay by Broad Institute.

These rows are one share of the data; the hit share may differ from the screen's.
